Menin-MLL FL inh – menin-MLL binding inhibition, fluorescein peptide | AID 1766 | Fluorescence polarization, fluorescein-MLL peptide displacement from menin | 290,000 tested, under 10 active | FP activity change, % at 61.4 µM; inconclusive = falling polarisation curve, or a change in total fluorescence; inactive = total fluorescence flat and polarisation flat or rising; no compound was filed as active; the % refers to the polarisation; negative = inhibition;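 note: % of control where 0% means no effect; inhibitors lower the polarisation; unlabelled MLL peptide was the positive control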
CtBP-E1A inh – blocks the CtBP interaction with E1A | AlphaScreen GST-E1A/His-CtBP binding, 1536-well; hits give low values; control for the full effect not named in the record | activity change, % (test concentration not listed) | 0.49% of 340,000 active; in the data active means activity change below about -65%; inconclusive means about -30% to -65%; inactive means above about -30%; note: % is set by controls: 0 for no effect and ±100 for the full control effect; compound concentration not given in the record
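Homogeneous bead-based format: GST-tagged E1A captured on glutathione donor beads, His-tagged CtBP on nickel acceptor beads; compounds precede bead addition by 2 h at 37 °C.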
TRPV1 PAM – potentiators of human vanilloid receptor 1 (TRPV1). Q8NER1. TRPV1-expressing cells, Fluo-8 calcium influx, capsaicin EC20 potentiation; host cell line not named in the record; control for the full effect not named in the record. potentiation, % at 8.33 µM. 0.02% of 320,000 active. AID 540277; active means potentiation above 80%; inconclusive means 30% to 80%; inactive means below 30%; note: 0% is about no effect
Target sequence (Q8NER1 whole entry, looked up): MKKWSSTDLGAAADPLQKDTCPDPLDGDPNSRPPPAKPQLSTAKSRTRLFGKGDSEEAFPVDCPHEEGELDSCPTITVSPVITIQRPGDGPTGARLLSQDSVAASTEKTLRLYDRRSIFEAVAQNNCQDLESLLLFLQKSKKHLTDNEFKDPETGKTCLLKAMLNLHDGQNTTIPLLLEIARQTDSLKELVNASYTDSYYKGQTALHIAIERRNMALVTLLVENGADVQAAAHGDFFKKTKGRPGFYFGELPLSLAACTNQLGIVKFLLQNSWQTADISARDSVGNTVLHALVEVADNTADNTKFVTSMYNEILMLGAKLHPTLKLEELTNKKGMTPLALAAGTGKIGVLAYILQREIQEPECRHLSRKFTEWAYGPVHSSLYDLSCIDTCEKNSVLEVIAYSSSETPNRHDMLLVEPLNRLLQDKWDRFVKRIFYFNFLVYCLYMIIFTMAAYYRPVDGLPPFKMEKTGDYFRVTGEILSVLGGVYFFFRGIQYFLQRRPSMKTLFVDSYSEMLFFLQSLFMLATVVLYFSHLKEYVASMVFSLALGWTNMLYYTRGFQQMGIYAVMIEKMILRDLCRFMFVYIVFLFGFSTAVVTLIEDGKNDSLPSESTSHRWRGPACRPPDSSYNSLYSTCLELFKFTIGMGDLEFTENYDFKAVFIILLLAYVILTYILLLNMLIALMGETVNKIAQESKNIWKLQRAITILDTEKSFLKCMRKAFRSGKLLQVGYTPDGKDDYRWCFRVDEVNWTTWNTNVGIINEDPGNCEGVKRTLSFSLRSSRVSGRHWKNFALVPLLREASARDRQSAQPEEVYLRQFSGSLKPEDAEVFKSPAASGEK
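TRPV1-expressing cells were cultured overnight at 35.5C and loaded with Fluo-8 calcium dye for 40 to 90 min at room temperature. After a 10 s baseline, compound was added and calcium influx was read kinetically for 3 min (ex 480/em 520 nm).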
ClpP mod – qHTS Assay for Activators of ClpP. Potency, µM (series often up to 57.5 µM), for the others: at the top dose activity change, negative = active. ATP-dependent Clp protease proteolytic subunit (Bacillus subtilis (strain 168)), P80244. purified B. subtilis ClpP, FRET peptide cleavage, 20 min. 1.9% of 340,000 active; active = well fitted falling curve with a large enough effect; inconclusive = small, poorly fitted or top-dose-only effect; inactive = no such curve, though single readings can be large or run the other way; note: potency is the fitted concentration of half-maximal effect; the source files actives as falling curves though it sought activators and does not explain the sign; nearly all actives have a fitted effect of over 65% in size; many hits overshoot -100%
Target sequence (P80244 whole entry, looked up): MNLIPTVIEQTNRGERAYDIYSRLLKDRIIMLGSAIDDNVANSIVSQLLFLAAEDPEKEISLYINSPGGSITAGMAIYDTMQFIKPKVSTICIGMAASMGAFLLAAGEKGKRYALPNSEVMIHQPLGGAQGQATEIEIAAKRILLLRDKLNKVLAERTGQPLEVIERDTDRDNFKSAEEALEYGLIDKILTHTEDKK
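Purified B. subtilis ClpP, 10 microg/mL final in Tris/HCl pH8 with KCl, BSA, glycerol and Tween-20, cleaved an Abz/nitrotyrosine-quenched decapeptide. Fluorescence (ex 320, em 430) was read at 0 and 20 min at room temperature. Delta was normalized to 5.8 microM ADEP and DMSO/no-enzyme controls.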
Sfp inh – Sfp phosphopantetheinyl transferase inhibition; Biochemical Sfp PPTase activity, qHTS; Potency, µM, for the others: max response, negative = inhibition, actives largely listed as inhibitors; 3.5% of 310,000 active; AID 1490; active = well fitted inhibition curve with a large enough effect; inconclusive = small, poorly fitted or top-dose-only effect, or another doubt; inactive = no such curve, though single readings can be large or run the other way;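 note: the enzyme is Sfp with the accession as filed and its product quenches rhodamine fluorescence; potency is the fitted concentration of half-maximal effect; 0% = enzyme reaction without inhibitor and -100% = no enzyme wells; top concentration of the series not given in the record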
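Buffer: 50 mM Hepes-Na pH 7.6, 10 mM MgCl2, 0.01% Nonidet P-40, 0.01% BSA. Enzyme 15 nM, pre-exposed to compound 15 min; substrates then added and fluorescence change tracked over 30 min.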
gsp antagonist – antagonists of gsp mutant (McCune-Albright syndrome); 0.4% of 340,000 active; Potency, µM (titrated, usually from 76.9 µM), without a hit: at the top dose activity change, negative = inhibition, actives largely listed as inhibitors; gsp-mutant cells, cAMP HTRF, 30 min; control for the full effect not named in the record; active = falling curve of any shape with a large fitted effect; inconclusive = falling curve, mostly with a smaller effect; inactive = flat or rising curve; cell line not stated here;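 note: intracellular cAMP measured with PDE inhibitor Ro 20-1724 present during compound exposure; potency is the fitted concentration of half-maximal effect; % is set by controls: 0 for no effect and ±100 for the full control effect; nearly all actives have a fitted effect of over 65% in size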
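HTRF cAMP measurement after 30 min RT detection following 30 min, 37C compound treatment alongside […] (added as 300 uM solution) in G418-selected cells seeded at 2000/well and grown 16–24 h.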
gsp agonist – agonists of gsp mutant (McCune-Albright syndrome); 0.13% of 340,000 active; AID 624287; gsp mutant cells, cAMP HTRF, 30 min; control for the full effect not named in the record; Potency, µM (doses to about 76.9 µM), for inactives: top-dose activation (cAMP increase), actives largely listed as activators; active = well fitted activation curve with a large enough effect; inconclusive = small, poorly fitted or top-dose-only effect, or another doubt; inactive = no such curve, though single readings can be large or run the other way; cell line not stated here;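 note: phosphodiesterase inhibitor Ro 20-1724 added with compounds to block cAMP breakdown; potency is the fitted concentration of half-maximal effect; nearly all actives have a fitted effect of over 60% in size; about a fifth of the inactives were tested at one dose only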
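Cells in DMEM/10% FBS with G418 were pretreated with compounds in DMSO plus […] (300 uM stock) for 30 min at 37C. cAMP was measured by HTRF (cAMP-d2 plus anti-cAMP antibody-K) after 30 min at room temperature.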
The depositor's hits bear a star; ? = inconclusive; / = not tested or not shown; [ ] = remark or other dose.

SMILES	Menin-MLL FL inh	CtBP-E1A inh	TRPV1 PAM	ClpP mod	Sfp inh	gsp antagonist	gsp agonist
CCOC(=O)c1c(C)c(C(=O)NCCOC)c(C)n1CC	2.1	-1	-9	-0.4%	0%	12%	11%
CCOc1ccc(CCNC(=O)c2ccc(C)c(S(=O)(=O)N3CCOCC3)c2)cc1OCC	/	-2	/	-1.9%	/	-7%	17%
CS(=O)(=O)N1CCN(c2ccc(C(=O)NC34CC5CC(CC(C5)C3)C4)cc2[N+](=O)[O-])CC1	9.3	1	-6	1.6%	-9%	8%	2%
O=c1c2ccccc2n(Cc2ccccc2F)c(=O)n1Cc1ccccc1F	2.7	5	-6	-24%	-5%	-2%	1%
Cc1cc(=O)c2cc(NC(=O)c3ccccc3Cl)ccc2[nH]1	-2.3	0	-1	30%	21%	7%	-5%[15.4 µM]
Cc1ccc(-c2cc3c(N=O)c4ccccc4c-3n[nH]2)cc1	-3.5	-13	-20	/	15%	-1%	-7%[15.4 µM]
Cc1ccc(OCC(=O)Nc2ccc(-c3nc4ncccc4o3)cc2)c(C)c1	2.4	-1	?	25µM*	?	10%	0%
CC1(NC(=S)NCCCCCCNC(=S)NC2(C)CCS(=O)(=O)C2)CCS(=O)(=O)C1 (stereo not given)	-0.4	11	-2	/	3%	5%	?
CCCc1cc(=O)[nH]c(SCC(=O)NC(=O)NC2CCCC2)n1	/	-3	16	-1.0%	/	-11%	-3%
O=C(CSc1nncn1-c1ccccn1)Nc1ccccc1Cl	1.4	18	1	3.1%	5%	5%	-8%[15.4 µM]
CC(=O)Nc1ccc(NC(=O)CC2CCCC2)cc1	8.1	-11	13	/	1%	5%	-5%[15.4 µM]
CN(C)CCN(C(=O)c1ccc(C(=O)c2ccccc2)cc1)c1nc2cc3c(cc2s1)OCO3	/	?	0	-2.6%	56µM*	-26%	-1%
CNc1cc(Cl)nc(SC)n1	-1.4	-3	11	0.1%	3%	7%	-29%
CSc1cccc(NC(=S)N2CCCN(Cc3ccccc3F)C2)c1	4.8	-8	20	/	20%	-16%	-22%[15.4 µM]
CCCCCC(=O)N/N=C/c1ccccc1[N+](=O)[O-]	-7.9	0	0	/	4%	-2%	7%
CC(C)(C)OC(=O)NCCc1n[nH]c(=S)o1	0.4	7	9	0.2%	79µM*	5%	1%[15.4 µM]
Cc1ccc(N(CC(=O)Nc2cccc(N(C)S(C)(=O)=O)c2)S(C)(=O)=O)cc1	4.1	4	2	1.3%	-2%	2%	?
Cc1ccc(C(C(=O)NC(C)(C)C)N(C(=O)c2csnn2)C2CC2)cc1 (stereo not given)	0.0	10	-5	1.7%	11%	-3%	-21%
CN(C)S(=O)(=O)N1CCN(c2ccccc2)CC1	1.7	-22	7	-1.5%	9%	3%	4%
O=C(O)COCC(=O)Nc1ccc(Oc2ncnc3cc(Cl)ccc23)nc1	-1.4	5	-15	/	3%	-5%	-3%[15.4 µM]
O=c1c2ccccc2c(/C=N/n2cnnc2)c(O)n1-c1ccccc1F	?	14	-7	?	-8%	-5%	?
COc1ccc(-c2nc(NC(=O)CCNC(=O)c3ccco3)sc2C)cc1	3.2	-3	4	-0.8%	-1%	?	-19%
O=C(c1coc(=O)c(Br)c1)N1CCC(C(O)(c2ccccc2)c2ccccc2)CC1	3.7	1	/	?	-17%	15%	1%[15.4 µM]
COc1cccc(C(=O)N/N=c2\oc3c(OC)cccc3cc2C(=O)NCc2ccccc2)c1	2.3	-1	2	1.4%	-11%	-8%	-28%
C=CCN(C(=O)c1csnn1)C(C(=O)NCc1ccccc1)c1cccs1 (stereo not given)	4.6	-2	-8	/	-3%	17%	14%
O=C(NCc1ccco1)c1ccc(Cn2c(=O)c3ccccc3n(Cc3ccc(Cl)cc3)c2=O)cc1	7.3	-7	4	-29%	?	4%	-11%
Cc1ccc(C(=O)N2CCCCCC2)cc1Br	4.5	-2	-10	0.6%	14%	-3%	?
COc1cccc(Nc2nc(N)c([N+](=O)[O-])c(NCc3ccco3)n2)c1	1.0	-15	?	/	-8%	5%	5%
CSc1ccccc1NC(=O)CSCc1ccc(C)cc1	-2.1	22	-4	0.1%	-2%	-13%	3%
Cc1c(Br)cnn1C(C)C(=O)N1CCN(c2ccc(F)cc2)CC1 (stereo not given)	/	-6	-2	-2.7%	/	0%	3%
O=C(O)C1CCC(CNS(=O)(=O)c2ccc(Cl)cc2)CC1 (stereo not given)	-1.4	13	-7	/	-8%	6%	2%
O=C(Nc1ccccc1)N1CCCc2ccccc21	0.9	6	-8	-0.3%	17%	3%	-9%
COc1ccc(-c2nncnn2)cc1	2.3	-1	4	-0.7%	-8%	12%	-23%
CCOC(=O)C1CCCN(c2c(NCC3CCCO3)c(=O)c2=O)C1 (stereo not given)	-3.0	-24	-21	-2.7%	20%	4%	-40%[inhibitor]
CCc1ccc(NC(=S)NC(=O)c2c(-c3ccccc3Cl)noc2C)cc1	2.1	0	24	/	4%	-5%	20%[15.4 µM]
CCC(=O)NC(=S)Nc1ccc(Cl)cn1	4.6	0	9	3.4%	17%	1%	4%
Cc1ccccc1-n1c(=O)cc(N2CCN(Cc3ccccc3)CC2)[nH]c1=O	0.1	-4	1	0.9%	?	3%	-41%[inhibitor]
N#Cc1cccc(NC(=O)CCNS(=O)(=O)c2ccc3[nH]c(=O)oc3c2)c1	/	-9	5	-1.2%	5%	2%	?
COc1ccc(-n2nnnc2SCC#CCO)cc1	2.5	-1	16	-0.9%	5%	8%	1%
Cc1ccc(S(=O)(=O)c2c(C)nn(C(C)(C)C)c2OC(=O)C2CCCC2)cc1	4.7	13	-15	-0.6%	9%	7%[15.4 µM]	3%
CC1CC(C)CN(CCOc2ccc(Cl)cc2Cl)C1 (stereo not given)	-0.6	28	-6	0.4%	-19%	2%	-12%
CN(C(=O)c1ccco1)c1nnc(-c2ccc(F)cc2)s1	-1.3	2	27	/	1%	-14%	-17%[15.4 µM]
COc1ccc(-c2ccc3c(c2)S(=O)(=O)c2cccc(C(=O)NCCOc4ccccc4)c2C3=O)cc1OC	/	2	-6	-2.4%	/	-14%	/
COc1nc(Oc2ccc(=O)[nH]n2)nc(N2CCOCC2)n1	5.2	8	-77	-0.9%	15%	3%	3%
COc1cc(NC(=O)CSCC(=O)N(C)C2CCCCC2)cc(OC)c1	/	5	6	1.5%	/	5%	4%
CC(=O)Nc1ccc(NC(=O)COC(=O)c2ccc(S(=O)(=O)NCc3ccco3)cc2)cc1	/	4	/	/	/	2%	28%
CCn1c(=NC(=O)CSCC(=O)Nc2nccs2)sc2ccccc21	2.5	1	3	-4.3%	13%	-5%	24%
CC1CCN(CCCCOc2ccc(Br)cc2)CC1	1.3	-1	-8	-7.3%	-18%	13%	22%

Not a retest: an excerpt of the list.
SMILES	Menin-MLL FL inh	CtBP-E1A inh	TRPV1 PAM	ClpP mod	Sfp inh	gsp antagonist	gsp agonist
CCOC(=O)c1c(C)c(C(=O)NCCOC)c(C)n1CC	2.1	-1	-9	-0.4%	0%	12%	11%
CCOc1ccc(CCNC(=O)c2ccc(C)c(S(=O)(=O)N3CCOCC3)c2)cc1OCC	/	-2	/	-1.9%	/	-7%	17%
CS(=O)(=O)N1CCN(c2ccc(C(=O)NC34CC5CC(CC(C5)C3)C4)cc2[N+](=O)[O-])CC1	9.3	1	-6	1.6%	-9%	8%	2%
O=c1c2ccccc2n(Cc2ccccc2F)c(=O)n1Cc1ccccc1F	2.7	5	-6	-24%	-5%	-2%	1%
Cc1cc(=O)c2cc(NC(=O)c3ccccc3Cl)ccc2[nH]1	-2.3	0	-1	30%	21%	7%	-5%[15.4 µM]
Cc1ccc(-c2cc3c(N=O)c4ccccc4c-3n[nH]2)cc1	-3.5	-13	-20	/	15%	-1%	-7%[15.4 µM]
Cc1ccc(OCC(=O)Nc2ccc(-c3nc4ncccc4o3)cc2)c(C)c1	2.4	-1	?	25µM*	?	10%	0%

Next part.
SMILES	Menin-MLL FL inh	CtBP-E1A inh	TRPV1 PAM	ClpP mod	Sfp inh	gsp antagonist	gsp agonist
O=C(Cn1c2c(c(-c3ccccc3Cl)cc1=O)CCC2)NCC1CCCO1 (stereo not given)	2.1	-2	15	/	14%	7%	-4%[15.4 µM]
Nc1nc(COc2ccccc2C=O)nc(Nc2ccccc2)n1	3.0	2	-3	25µM*	8%	5%	9%[15.4 µM]
CNC(=S)Nc1ccc(Br)cc1	6.2	7	1	-3.3%	3%	10%	0%
Cc1occc1C(=O)NNC(=O)COc1ccc(Br)cc1Br	-1.9	-17	3	0.8%	-19%	9%	8%
CCOc1cc2c(cc1OCC)C(c1ccc(OC)cc1)N(c1ccccc1)C(=O)C2 (stereo not given)	2.1	-9	-2	-2.1%	?	7%	-6%[15.4 µM]
O=C(COc1ccc(/C=N/NC(=O)c2ccccc2O)cc1)Nc1ccccc1	-3.4	8	-16	/	-6%	13%	21%
Cn1c(N)c(C#N)c2c(c1=S)COC(C)(C)C2	0.8	-26	4	-0.3%	10%	-13%	-6%
O=C(COC(=O)c1cccc(Cl)c1)Nc1cc(S(=O)(=O)N2CCOCC2)ccc1N1CCOCC1	/	-3	/	-3.4%	/	-8%	9%
C#C[C@]1(OC(C)=O)CCC2C3CCC4=CC(=O)CC[C@@H]4C3CC[C@@]21C (stereo not given in full)	-1.1	-1	18	-0.1%	-10%	1%	/
CCCN1C(=O)c2ccc(C(=O)Nc3ccc4c(c3)OCO4)cc2C1=O	/	-3	-2	1.8%	5%	6%	-12%
Cn1c(SCc2ccc(C#N)cc2Cl)nc2ccccc21	-1.9	3	-1	0.2%	-4%	-5%	-3%
O=C(CN(c1ccccc1)S(=O)(=O)c1ccccc1[N+](=O)[O-])NN=C1CCCCCCC1	2.4	6	-11	1.7%	12%	-4%	-11%
C[C@@H]1CN([C@H](C)CO)C(=O)c2cc(Br)cnc2O[C@@H]1CN(C)C(=O)Cc1ccccc1	/	4	/	-0.9%	/	/	?
Cc1ccc(SC2=C(Sc3ccc(C)cc3)C(=O)c3ccccc3C2=O)cc1	2.7	-11	-9	/	7.1µM*	-12%	-28%
